Sa ugtP lethal: growth inhibition of S. aureus ugtP deletion strain; S. aureus RN4220 ugtP deletion, OD600 growth, 16 h; some inactives read as strong as hits; growth inhibition, % (concentration not given with the values); actives 0.54% (n = 330,000);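 active = z-score under -3 and OD600 up to 0.15 on both plates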;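 note: plate controls were untreated wells for no effect and antibiotic for full effect; wells of about 80 µL received 100 nL stock; the first replicate is given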
Mtb hypoxia inh: reduces hypoxia-regulated biosensor signal in M. tuberculosis; AID 1159583; fluorescence inhibition, % (test concentration not listed); actives 0.1% (n = 300,000); M. tuberculosis hypoxia-regulated fluorescent reporter, fluorescence;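 active = 35 to 45% if threefold the growth effect, above 45% if 1.5-fold the growth effect; inactive = the rest, general growth blockers included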;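 note: wells of about 50 µL received 100 nL stock; 0% = vehicle wells and 100% = reference inhibitor wells; whole bacteria with a GFP reporter of the hypoxia response; strong numbers were not always called active; many hits fall short of the cut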
Sa RN4220 lethal: S. aureus RN4220 growth inhibition; inhibition, % (test concentration not listed); AID 1259311; actives 0.33% (n = 330,000); OD600, 16 h;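 active = z-score of -3 or lower and OD600 up to 0.18 on both plates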;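 note: plate controls were untreated cells for no effect and reference antibiotic for full effect; stock transfer was 100 nL into about 80 µL; one replicate is shown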
PrP 5UTR inh: inhibition of PrP 5' UTR reporter expression | actives 0.35% (n = 340,000) | AID 488862 | cell-based PrP 5' UTR mRNA reporter, plate reader | inhibition, % (concentration not given with the values);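 active = every replicate at 50% or more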;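 note: 0 = median of the neutral control wells; tested in H4 reporter cells; numbers are from one replicate; inactives centre near -14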
Autofluor counter: flagged as autofluorescent in microsphere protease counterscreen. compound autofluorescence counterscreen, microsphere flow cytometry; hits give high values. fluorescence intensity (concentration not given with the values). actives 3.1% (n = 360,000);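 active = at least 3 SD above the mean of all compounds, about 16000 in these data; inconclusive = too few beads counted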;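 note: 100 nL of 1 mM stock went into each well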
BJeLR lethal: BJeLR cell viability loss | BJeLR (HRASV12) viability, CellTiter-Glo ATP luminescence, 48 h; reference of the scale not given here | inhibition, % (concentration not given with the values) | actives 0.17% (n = 300,000) | AID 1554;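 active = replicate mean above 50%; inconclusive = above 50% but judged a plate artefact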;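 note: 50 nL library stock added to about 25 µL; numbers are from one replicate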
Mtb hypoxia inh growth: also measured in Mtb hypoxia inh; calls as there; growth inhibition, %; measured here: M. tuberculosis growth (absorbance);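 0% = vehicle and 100% = reference antibiotic; read after six days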
Starred values were filed as active, the others as inactive; ? = inconclusive; nt = not tested or not shown.

SMILES	Sa ugtP lethal	Mtb hypoxia inh	Mtb hypoxia inh growth	Sa RN4220 lethal	PrP 5UTR inh	Autofluor counter	BJeLR lethal
Cn1c(Cc2cccs2)nnc1SC/C=C/c1ccccc1	0	18	-1	-7.4	1	3254	-6
COc1ccc(C(=O)Nc2ccc(S(=O)(=O)N3CCCCC3)cc2)cc1	-2	5	6	-3.0	-18	3957	0
COc1ccc(-n2ncc3c2CC(C)(C)CC3NC(=O)CCc2c(C)noc2C)cc1 (stereo unspecified)	11	4	-3	0.5	-15	?	-8
CC(=O)Cn1c(CN2CCN(C(=O)c3ccco3)CC2)nc2c1c(=O)n(C)c(=O)n2C	9	6	-3	1.6	-32	3966	1
O=C(CSC1CCCCC1)Nc1ccccc1Br	6	-1	14	2.9	-36	2029	14
CN1CCN(S(=O)(=O)c2ccc3[nH]cc(C(=O)O)c(=O)c3c2)CC1	3	4	7	6.3	-12	21487*	-8
CCOc1ccc(S(=O)(=O)Nc2ccc(C(=O)N3CCCC3)cc2)cc1C(N)=O	2	0	6	1.0	-11	5567	-3
CCc1ccc(OCC(=O)N2CCN(c3ccccc3F)CC2)cc1	3	6	-2	4.0	-17	3262	12
COc1ccc(-c2n[nH]c(=S)n2-c2ccc3c(c2)OCCO3)cc1	4	8	2	0.8	-18	2489	0
O=[N+]([O-])c1cc(Cl)cc(C=Nn2cnnc2)c1O	18	5	1	2.6	nt	nt	nt
O=C(CCCC1=NS(=O)(=O)c2ccccc2N1)NCCc1ccc(Cl)cc1	4	-1	4	4.8	-9	5709	4
COc1ccc(Cl)cc1NS(=O)(=O)c1cccc(C(=O)NCC(c2ccco2)N2CCCC2)c1 (stereo unspecified)	1	7	1	3.4	12	?	11
CN(C)/C=C(\C#N)C(=O)Nc1ccc(F)c(Cl)c1	2	0	2	1.8	-44	6038	5
O=C(COC(=O)C12CC3CC(CC(C3)C1)C2)NC12CC3CC(CC(C3)C1)C2	-6	7	-2	1.8	-4	?	-2
Cc1cccc(Sc2c(C=O)c3ccccc3n2C)c1	45	3	3	-12	-8	3229	-4
COc1ccc(C(=O)OCC(=O)N(C)C2CCS(=O)(=O)C2)cc1S(=O)(=O)N(C)Cc1ccccc1 (stereo unspecified)	3	2	-3	2.2	-6	4516	12
O=C(Nc1ccccc1C(=O)O)/C(=C/c1ccc([N+](=O)[O-])cc1)NC(=O)c1ccc(Br)o1	-5	nt	nt	-0.3	-9	4420	-1
COc1cccc(CN(CC2CCCO2)S(=O)(=O)c2ccc(-n3cnnn3)c(OC)c2)c1 (stereo unspecified)	5	0	2	4.1	-20	4650	-3
CN1CCN(S(=O)(=O)c2cccc(C(=O)Nc3ccccc3N3CCCCC3)c2)CC1	13	4	5	0.8	-5	?	8
COc1ccc2cc(CN(Cc3ccco3)C(=S)NCC3CCCO3)c(=O)[nH]c2c1 (stereo unspecified)	-2	5	-9	1.9	-18	3315	-1

Whole records, looked up by structure. Screens in order: Sa ugtP lethal, Mtb hypoxia inh, Mtb hypoxia inh growth, Sa RN4220 lethal, PrP 5UTR inh, Autofluor counter, BJeLR lethal
Cc1cccc(Sc2c(C=O)c3ccccc3n2C)c1 across the screens: 45, 3, 3, -12, -8, 3229, -4
O=C(COC(=O)C12CC3CC(CC(C3)C1)C2)NC12CC3CC(CC(C3)C1)C2 across the screens: -6, 7, -2, 1.8, -4, ?, -2
COc1cccc(CN(CC2CCCO2)S(=O)(=O)c2ccc(-n3cnnn3)c(OC)c2)c1 (stereo unspecified) across the screens: 5, 0, 2, 4.1, -20, 4650, -3
CN(C)/C=C(\C#N)C(=O)Nc1ccc(F)c(Cl)c1 across the screens: 2, 0, 2, 1.8, -44, 6038, 5

(more compounds)
SMILES	Sa ugtP lethal	Mtb hypoxia inh	Mtb hypoxia inh growth	Sa RN4220 lethal	PrP 5UTR inh	Autofluor counter	BJeLR lethal
NC(=O)c1ccc(NC(=O)c2ccc(COc3ccccc3Br)cc2)cc1	1	8	2	4.1	-25	6158	nt
Cc1cccc(NC(=S)NC(=O)c2ccco2)n1	nt	nt	nt	nt	-25	2393	1
Cc1cc(C(=O)NNC(=O)c2ccc(C(F)(F)F)cc2)no1	8	-10	-11	4.0	-31	5972	-5
COC(=O)COc1ccc(S(=O)(=O)NCCC2=CCCCC2)cc1Cl	-1	-3	3	6.7	nt	10826	3
O=C(COC(=O)c1cccnc1Cl)NCc1ccc(F)cc1	3	19	42	-0.2	-21	3519	nt
FC(F)(F)c1cnc(NNC(=S)Nc2ccccc2Cl)c(Cl)c1	18	6	8	44	-18	10252	9
CC1Cc2cc(/C(O)=C3/C(=O)C(=O)N(CCCn4ccnc4)C3c3ccc(F)cc3)ccc2O1 (stereo unspecified)	1	-3	11	3.0	-18	5444	4
COc1ccc(NC(=S)NCCc2c[nH]c3ccccc23)cc1	1	-1	9	4.6	-13	2142	-18
CC(=O)Nc1cc(C(=O)O)ccc1S(=O)(=O)c1ccc(Cl)cc1	-1	-10	10	2.9	-3	22358*	3
COc1cccc(NC(=O)Cc2nnc(SCC(=O)c3ccccc3)n2C)c1	10	nt	nt	-0.7	-1	2041	-6
COc1cc(C=NNC(=O)c2ccncc2)ccc1OCC(=O)Nc1cccc([N+](=O)[O-])c1	-3	-8	-3	-2.6	nt	nt	nt
CCc1ccc(N2CC(C(=O)OCc3nc4ccsc4c(=O)[nH]3)CC2=O)cc1 (stereo unspecified)	6	7	2	7.1	-31	2852	nt
COc1ccc(C2NC(=O)C(=O)/C2=C(\O)c2ccc(Cl)cc2)cc1OC (stereo unspecified)	0	8	0	3.9	-26	3990	5
Cc1ccc(C(=O)Oc2cccc(NC(=O)c3ccccc3)c2)cc1C	22	-4	-4	-1.7	-16	2472	10
CC(C)c1ccc(NC2CCCN(C(=O)CC3CCCC3)C2)cc1 (stereo unspecified)	6	1	6	5.7	-4	5648	-4
Cc1cc(Cl)ccc1C(=O)C1CCCN(C(=O)c2n[nH]c3c2CCCC3)C1 (stereo unspecified)	-7	6	-2	6.6	-17	4586	-8
CN(C(=O)c1ccccc1F)C(c1ccccc1)c1ccccc1	24	1	4	-5.1	-23	5822	1
C=CCOc1cccc(/C=C/c2nc3ccccc3c(=O)[nH]2)c1	2	6	2	1.4	-62	3059	-4
O=C1C=C(c2cccc(Cl)c2O)CC(c2ccc(Cl)cc2)C1 (stereo unspecified)	1	8	8	12	nt	nt	nt
CCOC(=O)N1CCN(C(=O)CSc2nc3nc(C)cc(C)n3n2)CC1	-5	-17	-5	3.3	6	3679	nt
CSCCC(NC(=O)c1ccccc1)C(=O)NCc1ccc(S(N)(=O)=O)cc1 (stereo unspecified)	0	3	-3	-0.4	-16	3958	-9
COc1ccc(S(=O)(=O)Nc2ccc(C)cn2)cc1	nt	nt	nt	nt	1	3411	-24
COc1ccc(CC(=O)OCC(=O)Nc2ccc(OC(F)F)cc2)cc1OC	4	9	8	1.3	-36	3879	nt
CCC(=O)Nc1ccc(-c2csc(NNC(C)=O)n2)cc1	-2	0	-2	2.1	-3	2160	2
CCCOP(=O)(OCCC)C(Nc1ccc(C(=O)O)cc1)c1ccccc1 (stereo unspecified)	8	15	9	-0.9	-19	4541	2
N#C/C(C(N)=O)=C1/SC(Cc2ccc(F)cc2)C(=O)N1c1ccccc1 (stereo unspecified)	3	7	7	1.2	-13	3582	3
O=C(CN1CCc2ccccc2C1)Nc1ccccc1C(F)(F)F	12	14	14	9.5	-6	4619	-7
Cc1ccc(N2CC(C(=O)Nc3cccc(F)c3)CC2=O)cc1 (stereo unspecified)	7	18	9	5.0	-19	10799	-5
O=C(Nc1ccccc1Oc1ccccc1)c1cc([N+](=O)[O-])ccc1Cl	-2	-7	7	0.0	6	2354	3
COc1cccc(C(=O)NC(C)c2ccc(Br)cc2)c1 (stereo unspecified)	4	8	10	-0.4	-31	2089	-13
CCOc1ccc(CCNc2nc3c(c(=O)n(C)c(=O)n3C)n2CC)cc1OCC	10	3	1	6.6	-3	16756*	24
O=[N+]([O-])c1ccc(-c2nnc(CNC3CCCC3)o2)cc1	1	19	5	2.4	-12	4121	15
COc1cc(C2C(C#N)=C(N)N(Nc3ccccc3)C3=C2C(=O)CC(C)(C)C3)ccc1OCc1ccccc1 (stereo unspecified)	-6	2	11	-15	-5	2861	-8
CS(=O)(=O)N(CC(=O)NCc1ccncc1)c1ccc(F)c(Cl)c1	10	8	5	6.5	-15	3513	-3
Cc1ccc2ccc3cccc4ccc1c2c34	100*	16	7	-7.7	-20	5537	nt
CCN(CC)C(=O)Cn1nc(-c2ccc(Cl)cc2)c2ccccc2c1=O	7	12	2	5.2	-8	4683	9
COc1ccc(C2(CNC(=O)c3ccc(N)cc3)CCCC2)cc1	0	7	-1	2.8	-16	3995	-8
CC(C)(C)c1ccc(C=CC(=O)c2ccc(NC3=NCCCS3)cc2)cc1	-4	3	2	-7.1	nt	nt	nt
COc1ccc(Cc2nnc(NC(=O)CS(=O)(=O)c3ccc(C)cc3)s2)cc1OC	0	-7	8	0.8	1	3919	2
COc1ccccc1NC(=S)NNC(=O)c1nn(C)cc1Cl	3	nt	nt	-0.7	-9	3485	6
COC(=O)c1sccc1NC(=O)Nc1ccc(C)c(C)c1	0	9	-1	0.1	-53	5898	nt
COc1ccc(OC)c(NC(=O)NNC(=O)COc2ccc(F)cc2F)c1	-3	3	3	-4.0	-20	3861	-1
O=C1N=C(N2CCCCC2)S/C1=C/C1=Cc2ccccc2OC1	nt	nt	nt	nt	-38	4442	0
COCCN(C(=O)CSc1nc(-c2ccccc2)cn1N)c1c(N)n(Cc2ccccc2)c(=O)[nH]c1=O	5	3	0	4.0	-13	nt	0
Cc1cc(-c2sccc2C)nc(-n2cccc2)n1	62	3	2	-1.0	-10	10120	7
CC(=O)c1ccc(OC(=O)/C=C/c2ccccc2)cc1	0	7	11	8.1	-20	3390	-5
CCOP(=O)(OCC)/C(=N/OC(=O)c1ccccc1C)C(N)=O	nt	nt	nt	nt	-26	10322	-5
Cc1ccccc1NC(=S)NC12CN3CN(CN(C3)C1)C2	-14	-4	1	-1.0	-37	4411	7
COc1ccc(C(CNC(=O)CNS(=O)(=O)c2ccc(NC(C)=O)cc2)N2CCOCC2)cc1 (stereo unspecified)	4	-7	4	-0.7	-2	6258	-6
O=C(O)Cn1cccc1C(=O)c1ccccc1	0	-8	6	3.5	nt	7727	0
(cont.)
SMILES	Sa ugtP lethal	Mtb hypoxia inh	Mtb hypoxia inh growth	Sa RN4220 lethal	PrP 5UTR inh	Autofluor counter	BJeLR lethal
Cc1cc(-c2nc3ccccc3c(=O)o2)ccc1[N+](=O)[O-]	12	0	-3	7.2	-31	3873	2
CC(=O)Nc1nnc(SCC(=O)N2C(C)CCCC2C)s1 (stereo unspecified)	10	2	-12	1.4	-10	6142	-15
CCN(CC(=O)N1CCCCCC1)S(=O)(=O)c1ccc(Cl)cc1	-7	nt	nt	-2.0	-8	2154	2
N#C/C(=C\c1ccc(N2CCCC2)c([N+](=O)[O-])c1)c1nc2ccccc2[nH]1	-5	12	7	-0.4	-34	10089	5
CCN(CC)c1ccc(C=NNC(=O)c2cnccn2)c(O)c1	10	15	2	4.5	nt	nt	nt
Cc1c(N=Cc2ccccn2)c(=O)n(-c2ccccc2)n1C	6	13	7	5.5	-38	5315	12
CCCn1c(=O)c2c(c3ccccc31)OC(C)C(=O)N2 (stereo unspecified)	10	nt	nt	5.2	-1	3639	-8
O=S(=O)(c1ccc(NC(=S)NCc2ccco2)cc1)N1CCCCC1	-4	0	9	3.9	-16	4846	-9
Cc1cc(C)cc(N(CC(=O)Nc2ccccc2C(=O)N2CCOCC2)S(C)(=O)=O)c1	8	-1	0	4.2	-16	2194	-4
O=C(CCN1CCCCC1)Nc1ccccc1	-4	5	7	2.9	-15	2398	-2
N#CC1=C2SCN(Cc3ccccc3)CN2C(=O)CC1c1ccccc1F (stereo unspecified)	-6	1	12	-12	-3	4933	1
CC(OC(=O)c1nc(Cl)ccc1Cl)C(=O)c1ccccc1 (stereo unspecified)	7	6	2	2.9	-13	?	-4
C=CCOc1ccc(/C(O)=C2\C(=O)C(=O)N(CCN(C)C)C2c2cccs2)cc1 (stereo unspecified)	3	nt	nt	2.4	-25	3044	-3
O=C(COC(=O)c1nc(Cl)ccc1Cl)Nc1ccc2[nH]c(=O)[nH]c2c1	nt	nt	nt	nt	-8	5558	4
CC(NC(=O)COC(=O)CNC(=O)c1ccccc1Cl)C1CC2CCC1C2 (stereo unspecified)	2	6	0	5.2	-5	7876	nt
CCN1CCN(C(=O)C2CCN(c3nnc(C)c4c(C)n(-c5ccc(C)cc5)nc34)CC2)CC1	4	7	0	0.3	-23	nt	12
